From PubChem BioAssay
MLL AF4-AF9 inh: inhibitors of AF4 peptide binding to AF9, primary screen, biochemical, AlphaScreen, biotin-AF4 peptide, FLAG-AF9, single point; inhibition, % at 10 µM; hit rate 0.47% among 350,000; Protein AF-9 (Homo sapiens), P42568;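 active = every replicate reaching a set inhibition limit, whatever the replicate mean, cut at about 25% in these data; inconclusive = mean inhibition reaches that limit but some replicates miss it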;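 note: 0% = plate neutral control median and 100% = total signal loss; the record names both 10 and 1 µM as test concentration; the first replicate is given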
Target sequence (P42568 whole entry, looked up): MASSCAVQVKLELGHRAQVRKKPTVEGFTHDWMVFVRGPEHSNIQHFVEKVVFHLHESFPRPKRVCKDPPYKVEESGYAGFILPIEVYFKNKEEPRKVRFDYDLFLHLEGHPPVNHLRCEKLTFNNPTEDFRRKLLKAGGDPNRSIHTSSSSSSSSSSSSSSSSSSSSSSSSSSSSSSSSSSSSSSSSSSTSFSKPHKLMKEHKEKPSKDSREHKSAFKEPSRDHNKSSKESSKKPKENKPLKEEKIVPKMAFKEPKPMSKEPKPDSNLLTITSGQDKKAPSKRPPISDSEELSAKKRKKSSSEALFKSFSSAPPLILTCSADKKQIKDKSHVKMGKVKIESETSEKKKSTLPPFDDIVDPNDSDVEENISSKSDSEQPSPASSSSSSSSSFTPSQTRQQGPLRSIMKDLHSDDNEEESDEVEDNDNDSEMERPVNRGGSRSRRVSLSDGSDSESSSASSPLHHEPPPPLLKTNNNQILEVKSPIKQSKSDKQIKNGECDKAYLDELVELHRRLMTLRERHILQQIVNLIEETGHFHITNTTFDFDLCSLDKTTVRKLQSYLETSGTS
RanGTP-Impb inh: inhibitors of RanGTP-importin-beta interaction, primary screen, biochemical, FRET, CFP-Ran, YFP-importin-beta, homogeneous; Ran GTPase (GTP-bound) - importin-beta complex; cell-free CFP-Ran/YFP-importin-beta FRET ratio; inhibition, % (test concentration not listed); hit rate 1.1% among 300,000;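 active = most replicates above 15%; inconclusive = exactly half above 15%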;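 note: 0% = DMSO wells and 100% = Ran loaded with GDP instead of GTP; wells of about 40 µL received 100 nL stock; the first replicate is given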
LANA-H2B inh: blockers of LANA interaction with H2A/H2B – biochemical, FP readout, HTS, primary screen; Protein LANA1 (Human herpesvirus 8 type P (isolate GK18)), Q9QR71; cell-free LANA-H2A/H2B peptide, fluorescence polarization; inhibition, % (concentration not given with the values); hit rate 0.6% among 320,000; AID 2629, 2010; in the data active = inhibition mostly above about 10%, no sharp cut-off; inactive = mostly below about 6.7%;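 note: stock transfer was 7.5 nL into about 10 µL; 0% = median of vehicle wells and 100% = median of positive control wells; one replicate is shown; the record names a cut of 25% in any replicate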
A1 inh: caspase 3/7 activation in MEF A1-2A-BIM cells, primary screen, A1 inhibitor project, cell-based, luminescence, HTS; Caspase-Glo 3/7 luminescence, 3 h; percent of clofoctol response, vehicle zero; caspase activation, % (no concentration beside the values); hit rate 0.066% among 330,000; AID 2462, 2010;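 active = over half of replicate activation scores above 10%, or exactly half above 10 with the replicate mean above 10; inconclusive = replicate mean below 10 yet half the replicates above 10; inactive = over half of replicates below 10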;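 note: wells of about 30 µL received 50 nL stock; many hits fall short of the cut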
T cruzi repl: inhibitors of intracellular T. cruzi growth, primary screen, luminescence, NIH3T3 host cells | T. cruzi beta-gal in NIH3T3, 90 h | inhibition, % (concentration not given with the values) | hit rate 1.4% among 300,000 | AID 1885, 2009;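 active = mean inhibition across valid replicates above about 55%, limit read from the data; inconclusive = mean below that limit but half or more replicates reach it; inactive = mean below it, under half of replicates reach it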;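 note: signal also drops with host cell toxicity which is not excluded here; 0% = plate median of DMSO wells and 100% = zero luminescence signal; higher percent means less beta-gal luminescence so fewer parasites; stock transfer was 50 nL into about 50 µL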
Calb FLC: C. albicans growth inhibition with fluconazole, primary screen, CaCi-2 strain, Alamar Blue fluorescence. C. albicans CaCi-2 (fluconazole-resistant clinical isolate) + fluconazole, 48 h. growth inhibition, % (concentration not given with the values). hit rate 0.57% among 300,000. AID 1979, 2009;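 active = most replicates above 75%; inconclusive = exactly half above 75%; inactive = most below 75%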;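 note: all wells also contain fluconazole at 8 µg/ml as a sub-toxic cotreatment; 0% = median of DMSO wells and 100% = median of geldanamycin control wells; wells of about 8 µL received 7.5 nL stock; the first replicate is given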
Beta cell apopt: inhibitors of cytokine-induced beta cell apoptosis, primary screen, luminescence. INS-1E cytokine-induced death, ATP luminescence, 48 h; percent of positive-control rescue, neutral wells zero. protection from apoptosis, % (test concentration not listed). hit rate 0.8% among 300,000. AID 435005, 2010;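 active = all replicates at 75% or more, or half of them and the mean; inconclusive = half reach 75% but not the mean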;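 note: 0% = cytokine-treated negative control wells and 100% = positive control rescue; higher means more ATP so stronger rescue from cytokine killing; wells of about 40 µL received 100 nL stock; the first replicate is given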
Vif A3G: inhibitors of Vif binding to APOBEC3G peptide, primary screen, biochemical, TR-FRET, GST-Vif 1-94, biotin-A3G peptide, dose response retest (AID 1117319); TR-FRET GST-Vif / biotin-A3G peptide binding; higher % means a stronger effect; test concentration not given here; strong numbers were not always called active; one-dose inhibition, %; IC50 in µM for titrated hits; hit rate 0.57% among 260,000;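 active = above the screen mean plus three standard deviations and confirmed in dose response; inconclusive = results disagree or hit not tested in dose response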;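 note: Vif residues 1-94 fused to GST binding biotinylated APOBEC3G peptide 110-148; 0% = full assay without inhibitor and 100% = GST in place of GST-Vif; retest series ran down from 100 µM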
An asterisk follows results filed as active; ? = inconclusive; nt = not tested or not shown; & = joins results of further samples. Rows were taken by chance; about 4.3% have a hit in one of these screens.

no. | molecule | RanGTP-Impb inh | Vif A3G | Calb FLC | LANA-H2B inh | MLL AF4-AF9 inh | Beta cell apopt | T cruzi repl | A1 inh
1 | COc1ccccc1-c1nnc(NC(=O)C2=COCCO2)o1 | 0.2 | nt | -2 | -2.4 | nt | -3 | -6 | 1.7
2 | CCOC(=O)N1CCN(S(=O)(=O)N(C)C)CC1 | 3.6 | 25% | -2 | 3.3 | nt | -5 | -12 | 1.1
3 | COC1CCN(Cc2c(C(=O)N3CCN(C4CCCCC4)CC3)nc3ccccn23)CC1 | 104* | nt | -2 | -0.5 | nt | -6 | 59* | 0.9
4 | OC(COCc1ccccc1)CN1CCN(c2ccccc2)CC1 (stereo not drawn) | -1.9 | 1% | -4 | 2.8 | nt | -3 | 2 | 2.2
5 | CCc1ccc(-c2cc(C)no2)cc1S(=O)(=O)NCCN1CCC(C)CC1 | 0.2 | -10% | -21 | 2.5 | -2.1 | 2 | 18 | 0.4
6 | CCc1ccc(C(C)NC(=O)c2ccc(F)cc2)cc1 (stereo not drawn) | 0.5 | 4% | 1 | -1.2 | nt | -6 | 1 | 0.1
7 | O=C1N(Cc2cccc(Cl)c2)C[C@@H]2C[C@@H](c3cccn3-c3ccccn3)N3CCC[C@@]123 | -0.2 | 11% | 5 | 1.5 | 0.1 | -5 | 6 | -1.1
8 | CN(Cc1nc2ccc(F)cc2[nH]1)Cc1nc(CC2CC2)no1 | 3.5 | nt | 30 | 3.2 | nt | -2 | 8 | -0.1
9 | CSC1=NCCN1C(=O)c1ccc(C)cc1 | -1.4 | -2% | -11 | -5.5 | -1.3 | 1 | -16 | -0.3
10 | COc1cccc(CN2CCN(Cc3cc4ccccc4[nH]3)CC2CCO)c1 (stereo not drawn) | 8.6 | -9% | 7 | 4.0 | 7.0 | 2 | 44 | ?
11 | CC(C)(CC(=O)OCC(=O)Nc1ccccc1F)CC1=NS(=O)(=O)c2ccccc2N1 | 3.9 | nt | 3 | 10 | 0.2 | -8 | -2 | 0.5
12 | CCCCSc1cc(C)nc2ncnn12 | -0.2 | -10% | 2 | 2.5 | nt | -3 | -7 | -0.3
13 | C=C(C)Cn1c(CCCNC(=O)C(C)(C)C)nc2ccccc21 | -1.4 | ? | 8 | 1.0 | nt | -5 | 1 | 0.4
14 | CC(NC(=O)c1cc(-c2ccncc2)nc2ccc(Br)cc12)C1CCCO1 (stereo not drawn) | 0.0 | nt | -3 | -0.4 | -1.3 | -4 | 21 | 0.4
15 | Cc1cc2ccccn2c1C(=O)c1ccccc1Br | -1.0 | nt | 3 | -6.1 | 11 | -6 | 2 | 0.4
16 | CCN(CC)CCCNc1oc(-c2cccc(Cl)c2)nc1C#N | 1.2 | 0% | -17 | -2.7 | nt | 1 | 49 | 0.3
17 | CC1=C(C(=O)OCC(C)C)C(c2cc3c(cc2Br)OCO3)NC(=O)N1C (stereo not drawn) | 2.3 | 6% | 10 | -0.3 | nt | -3 | -2 | 0.3
18 | Cc1nn(Cc2ccccc2)c2c1C(c1ccc(Cl)cc1)C(C#N)=C(N)O2 (stereo not drawn) | 2.0 | 9% | 0 | 1.1 | nt | 1 | -2 | -0.6
19 | O=C(Nc1nc(-c2cc(F)ccc2F)cs1)C1=NN(c2ccccc2)C(=O)CC1 | ? | nt | -1 | -3.1 | 5.5 | 5 | 11 | 0.0
20 | O=C(c1ccco1)N1CCC(n2nnc3ccccc32)CC1 | -2.1 | 5% | -8 | -3.2 | nt | -4 | -2 | -0.2
21 | Cc1ccc(C)c(C(=O)CCC(=O)NNC(=O)Cn2nc(C)cc2C)c1 | -1.6 | -5% | -2 | 0.1 | -16 | 0 | 2 | 0.8
22 | CC(OC(=O)C1CCCCC1)C(=O)Nc1cccc(Cl)c1 (stereo not drawn) | -2.5 | nt | 9 | -0.4 | 1.2 | 0 | 1 | 0.1
23 | CN(C)S(=O)(=O)c1cccc(NC(=O)CCc2nc3sc4c(c3c(=O)[nH]2)CCCC4)c1 | nt | -7% | nt | 4.1 | 2.0 | 4 | nt | -1.7
24 | CCCCn1c(N)c(N(CCOC)C(=O)CCCc2nc3ccccc3c(=O)[nH]2)c(=O)[nH]c1=O | 0.6 | 0% | -1 | nt | -23 | -4 | -11 | 1.4
25 | O=C(CCc1ccccc1Cl)NC1CCCN(c2ccc(C(F)(F)F)cn2)C1 (stereo not drawn) | 6.5 | nt | -8 | 4.3 | -7.7 | 1 | 7 | -0.2
26 | Cc1c(C)n(CC(O)CN2CCOCC2)c2ccccc12 (stereo not drawn) | 7.4 | 1% | 19 | 0.9 | -2.8 | 1 | -3 | 0.4
27 | O=C(CSc1ccccc1Cl)c1ccco1 | 1.1 | 14% | nt | -0.8 | nt | -15 | 6 | -1.2
28 | COc1ccc2occ(C(=O)c3cccs3)c2c1 | -1.4 | -1% | -21 | 1.1 | nt | -2 | -7 | -2.8
29 | Cc1ccc(OC(=O)c2c(C)nn(-c3ccccc3)c2C)cc1 | -0.8 | nt | 14 | -1.3 | -4.3 | 9 | 9 | 0.1
30 | CC(C)CNC(=O)C(=O)Nc1ccc2c(c1)N(S(=O)(=O)c1cccs1)CCC2 | 7.5 | -1% | 28 | 1.6 | -5.5 | 16 | 34 | -0.2
31 | CCOc1ccccc1N(C(=O)CNC(=O)c1ccco1)C(C(=O)NC(C)(C)C)c1ccncc1 (stereo not drawn) | 4.1 | 2% | 1 | 4.7 | nt | 0 | 0 | -0.4
32 | OCCN1CCN(C(=S)c2ccc(-c3ccccc3)cc2)CC1 | 1.6 | -29% | -7 | -3.1 | 2.6 | -7 | -2 | -0.4
33 | C=CCON1C(=O)C(=O)N(OCC=C)[C@H]2CCCC[C@H]21 | 1.9 | -6% | -13 | -1.5 | nt | -2 | -8 | -0.3
34 | C#CC(CC)(CC)NC(=S)Nc1cccc(C(C)=O)c1 | -1.4 | 5% | 8 | -11 | nt | 4 | 16 | -0.3
35 | O=C(Nc1cccc(NC(=O)c2ccco2)c1)c1cnccn1 | -0.7 | 6% | -15 | 1.0 | nt | -7 | 22 | -0.6
36 | C=CCNC(=O)c1onc(CSc2cccc(OC)c2)c1C(=O)O | -1.0 | -1% | -5 | 1.2 | -4.1 | 1 | -18 | -0.5
37 | CCC(C)NCC(=O)Nc1sc2c(c1C(N)=O)CCC2 (stereo not drawn) | 6.0 | 1% | -1 | -1.1 | nt | 1 | -9 | 0.1
38 | CCOC(=O)c1c(C)[nH]c(C)c1C(=O)COC(=O)c1cc(OC)c(OC)cc1OC | nt | -2% | -8 | -3.6 | 5.2 | -2 | -1 | 1.0
39 | CCN(CC)CCn1nc2c3c(cccc3c1=O)-c1ccccc1-2 | nt | nt | nt | 1.3 | 1.5 | 113* | 58* | -0.2
40 | CCN1C(=O)[C@H]2[C@@H](c3ccc(-c4ccc5c(c4)OCO5)c(OC)c3)N[C@@](Cc3ccccc3)(C(=O)OC)[C@H]2C1=O | -3.0 | nt | 4 | 1.3 | -4.1 | 4 | 15 | 0.3
41 | CCCCC1C(C#N)=C(C)NC2=C1C(=O)CC(C)(C)C2 (stereo not drawn) | 9.3 | -1% | 0 | -4.3 | nt | 5 | -3 | -0.1
42 | Clc1cccc(NCc2nnc(SCc3ccc(Cl)cc3Cl)o2)c1 | 0.5 | 6% | 1 | 4.4 | nt | -3 | 0 | 0.9
43 | CC(C)NC(=O)N1CCN(c2ccncc2S(=O)(=O)N2CCCCC2)CC1 | -2.4 | -3% | -7 | -0.5 | 0.7 | 0 | 8 | -0.3
44 | C#CCOCCOCCOCCNc1nc(N2CCOCC2)nc(N2CCN(C(=O)CCCCCCCCCCNC(=O)[C@@H](CCC(=O)O)n3cc(CCCCCN)nn3)CC2)n1 | nt | nt | nt | -0.7 | 7.3 | -6 | nt | 1.4
45 | Cc1ccccc1N1C(S)=C(C#N)C(=O)NC1c1ccco1 (stereo not drawn) | -5.7 | -5% | 13 | -3.8 | -4.2 | 5 | -16 | 0.4
46 | Fc1ccc(CSc2ccc3nnc(-c4ccccn4)n3n2)cc1 | 0.0 | -1% | -19 | 1.2 | 0.2 | 3 | -4 | 0.5
47 | COC(=O)CN1C(=S)N(c2ccc(OC)cc2)C(=O)C1CC(=O)Nc1ccc(F)cc1 (stereo not drawn) | 4.7 | 7% | 11 | 1.5 | -0.6 | -1 | -7 | 0.9
48 | COC(=O)c1ccc(N)c(N=CC2=C(O)CC(C)(C)CC2=O)c1 | -20 | 25% | -2 | nt | -81 | 0 | -13 | -0.7
49 | CCOC(=O)CC(=O)CSc1nc2c(c(-c3cccs3)c1C#N)CCC2 | ? | 2% | 2 | -2.1 | nt | -7 | 0 | -0.4
50 | CCCn1c(C2CC(=O)N(c3cc(OC)ccc3OC)C2)nc2ccccc21 (stereo not drawn) | -6.0 | 3% | -8 | 2.4 | -5.1 | 10 | -19 | 0.2
51 | Cc1ccc(NC(=O)c2ccc(=O)n(CC(=O)Nc3ccccc3)n2)cc1 | 1.1 | -2% | -8 | -1.4 | -2.7 | 2 | -22 | -1.8
52 | Cc1c(NC(=O)CSc2nc3ccccc3c(=O)n2C(C)C)c(=O)n(-c2ccccc2)n1C | nt | -13% | nt | -2.1 | -4.0 | -8 | nt | 0.3
53 | CC1CCCCN1S(=O)(=O)c1ccc(C(=O)Nc2nnc(-c3ccccc3Cl)o2)cc1 (stereo not drawn) | ? | ? | 10 | -4.8 | nt | nt | 36 | 0.7
54 | COc1ccc(CCNC(=O)C2CC(=O)N(c3ccc(C(C)(C)C)cc3)C2)cc1OC (stereo not drawn) | -4.0 | ? | 1 | -0.9 | -0.5 | 1 | -6 | -0.5
55 | O=C(NNC(=O)c1ccc(O)cc1O)c1ccc(-c2ccccc2)cc1 | ? | -3% | 4 | -1.5 | 3.9 | 1 | 9 | -0.1
56 | N#CC(c1ccccc1)c1ccc2c(C(F)(F)F)cc(C(F)(F)F)nc2n1 (stereo not drawn) | 0.1 | 8% | -4 | 0.8 | nt | 93* | 12 | 0.1
57 | CCOC(=O)N1CCN(C(=O)Nc2cccc3ccccc23)CC1 | 6.1 | 12% | -4 | nt | -0.7 | 1 | -14 | -0.9
58 | COC(=O)c1cc(S(=O)(=O)N2CCCCC2)ccc1N1CCOCC1 | 1.6 | nt | -1 | -3.3 | 1.2 | -3 | -2 | 0.0
59 | CC(C)c1ccc(-c2c(C#N)c(N)nc(SCC(=O)N3CCCCC3)c2C#N)cc1 | -5.8 | -17% | 4 | -0.7 | nt | 11 | 31 | 0.4
60 | CCOC(=O)Cn1c(-c2nonc2NC(=O)c2ccccc2F)nc2ccccc21 | 6.0 | -6% | 0 | 3.4 | nt | 3 | 18 | 0.1
61 | O=C(Cn1c(N2CCN(c3ccccc3)CC2)nc2ccccc21)c1ccccc1 | -0.9 | -7%&15% | 5 | -2.3 | nt | 11 | 21 | -0.6
